StopGo RLuc – lowers the Renilla signal of an FMDV 2A StopGo reporter; HEK cells with a luciferase reporter of 2A StopGo recoding; Potency, µM (top dose mostly 57.5 µM), without a hit: at the highest dose signal change, negative = less light; 120,000 tested, 0.32% active; AID 1745857; active means well fitted falling curve with a large enough effect; inconclusive means small, poorly fitted or top-dose-only effect; inactive means no such curve, though single readings can be large or run the other way; note: nearly all actives have a fitted effect of over 55% in size; overnight with compound
2A firefly – FMDV 2A StopGo reporter, firefly signal | 120,000 tested, 0.23% active | AID 1745856 | HEK cells with a luciferase reporter of 2A StopGo recoding | Potency, µM (titrated, usually from 57.5 µM), without a hit: top-dose signal change, negative = less light; active = well fitted falling curve with a large enough effect; inconclusive = small, poorly fitted or top-dose-only effect; inactive = no such curve, though single readings can be large or run the other way; note: nearly all actives have a fitted effect of over 60% in size; overnight with compound
* hit, by the source's call; ? = inconclusive; & = joins results of further samples; [ ] = remark or other dose. % is set by controls: 0 for no effect and ±100 for the full control effect; potency is the fitted concentration of half-maximal effect. These rows are one share of the data (hit frequency here may not be typical).

Sequence of screens – StopGo RLuc, 2A firefly
#1 O=C(Nc1ccc(F)cc1)c1ccc(CN2CC(=O)N3CCCCC3C2=O)cc1 (stereo not given)
  -10%, -17%
#2 Cc1cccc(OCC(=O)Nc2ccc3c(c2)N(C)C(=O)c2ccccc2S3)c1
  -4%, -16%
#3 O=C(Cc1ccccc1F)N1CCC(c2nc3c(nnn3Cc3cccc(Cl)c3)c(=O)[nH]2)CC1
  9%, 10%
#4 Cc1cc(C)cc(NC(=O)C(=O)NC(C)c2ccccc2)c1 (stereo not given)
  -5%, 2%
#5 Cc1cccc(N=C2NN=C(c3c[nH]c(C(=O)N4CCCC4)c3)CS2)c1C
  6%, 11%
#6 CC(C)(C)c1ccc(S(=O)(=O)[C@H]2CS(=O)(=O)C[C@@H]2N2CCN(c3ncccn3)CC2)cc1
  3%, 2%
#7 COc1ccc(NC(=O)Cn2c(=O)n(C(C)C)c(=O)c3oc4ccccc4c32)cc1Cl
  -4%, -8%
#8 COc1ccc(S(=O)(=O)N2CCN(Cc3cccc(C(F)(F)F)c3)CC2)cc1OC
  7%, 14%
#9 CCCCNC(=O)c1cn(C)c2ccc(S(=O)(=O)N3CCCC3)cc2c1=O
  -5%, -2%
#10 CC(=O)Nc1ccc(NC(=O)C(c2ccccc2)N2Cc3ccccc3C2=O)cc1 (stereo not given)
  -1%&-1%, -11%&2%
#11 NC(=O)Cc1ccc2c(c1)OCCCO2
  -11%, -3%
#12 COc1ccc(NC(=O)Cn2c(C(=O)c3ccc(Cl)cc3)nc3ccccc32)c(OC)c1
  38%[activator], 13%
#13 Cn1c(=O)[nH]c(=O)c2c1nc(SCCc1ccccc1)n2CCc1ccccc1
  -3%, -16%
#14 CCOC(=O)c1ccccc1NC(=O)CSc1ccc(-c2cccs2)nn1
  9%, -15%
#15 CCn1c(=O)c2cc(C(=O)NCCCN3CCN(c4ccc(F)cc4)CC3)sc2c2ccccc21
  -14%, 0%
#16 CCCCN(C)C(=O)CN1C(=O)CCn2nc(-c3cn(C)c4ccccc34)cc21
  -10%, 6%
#17 O=C(/C=C/c1ccco1)c1ccccc1
  4%, 0%
#18 CCOC(=O)c1ccc(NC(=O)c2noc3c2CCCC3)cc1
  ?, -62%
#19 CN(Cc1ccccc1)C(=O)C1CCN(S(=O)(=O)Cc2ccccc2)CC1
  -12%, -14%
#20 CCc1c(C)sc(NC(=O)CSc2ccccc2)c1C#N
  27%, 153%[activator]
#21 COc1cc(C(=O)N(Cc2cccnc2)c2nc3cc(C)c(C)cc3s2)cc(OC)c1OC
  -9%, 30%[activator]
#22 Cc1[nH]cnc1CN1CCc2c(c3ccccc3n2C)C1=O
  -2%, -13%
#23 O=C(NCc1ccccc1C(F)(F)F)c1n[nH]c2c1CCCC2
  45%[activator], 187%[activator]
#24 CCCn1c(CCC(=O)Nc2ccccc2OC)nc2cccnc21
  -7%, -11%
#25 CCOc1ccccc1CNC(=O)c1oc2c(c1C)-c1nn(Cc3cccc(Cl)c3)cc1CC2
  -16%, -17%
#26 Cc1ccc2ncc(C(=O)Nc3cccc(C(F)(F)F)c3)c(=O)n2c1
  9%, 7%
#27 Cc1nn(C)c2c1c(C(F)(F)F)cc(=O)n2CC(=O)NCc1ccc(OC(C)C)cc1
  -28%, -21%
#28 NC(=O)NNC(=S)Nc1ccccc1
  -8%, -1%
#29 COc1ccc(C(C)=O)cc1CSCc1coc(-c2ccc(C)cc2C)n1
  6%, 8%
#30 COc1ccc(Cl)cc1S(=O)(=O)Nc1ccc2[nH]c(=O)[nH]c2c1
  -11%, 0%
#31 O=C(Nc1ccc(S(=O)(=O)Nc2cnc3ccccc3n2)cc1)c1ccc(Br)cc1
  ?, 0%
#32 Cc1ccc(-c2cnc(CCC(=O)Nc3ccc(Cl)cc3F)o2)cc1
  -7%, 14%
#33 CC(C)c1ccccc1OCC(=O)N1CCN(Cc2nc(N)c3ccccc3n2)CC1
  1%, 11%
#34 Cc1cccc(C(=O)NCC(=O)OCc2cc(=O)n3nc(C)sc3n2)c1
  -12%, -14%
#35 Cc1ccc(CN2CCC(CNC(=O)Nc3cccc(Cl)c3C)C2)cc1 (stereo not given)
  -13%, -19%
#36 COC(=O)c1c(NC(=O)c2c(OC)cccc2OC)sc2c1CCCC2
  -8%, -10%
#37 CC(C)c1cc(C(=O)Nc2ccc(C(=O)N(C)C)cc2)c2ccccc2n1
  10%, 32%[activator]
#38 CCC(=O)N1CCc2cc(S(=O)(=O)CCC(=O)NCc3ccc(C)cc3)ccc21
  -7%, -2%
#39 Cc1ccc(C)c(OCC(O)Cn2cnc3sccc3c2=O)c1C (stereo not given)
  ?, ?
#40 Cc1ccc2nc(-c3ccccc3F)c(Nc3ccc(Cl)cc3)n2c1
  51%[activator], 27%

Some of the entries above in a different format:
no.	smiles	StopGo RLuc	2A firefly
12	COc1ccc(NC(=O)Cn2c(C(=O)c3ccc(Cl)cc3)nc3ccccc32)c(OC)c1	38%[activator]	13%
13	Cn1c(=O)[nH]c(=O)c2c1nc(SCCc1ccccc1)n2CCc1ccccc1	-3%	-16%
14	CCOC(=O)c1ccccc1NC(=O)CSc1ccc(-c2cccs2)nn1	9%	-15%
15	CCn1c(=O)c2cc(C(=O)NCCCN3CCN(c4ccc(F)cc4)CC3)sc2c2ccccc21	-14%	0%
16	CCCCN(C)C(=O)CN1C(=O)CCn2nc(-c3cn(C)c4ccccc34)cc21	-10%	6%

Carrying on:
Sequence of screens – StopGo RLuc, 2A firefly
#41 COc1ccc(C)cc1NC(=O)CN1C(=O)COc2ccc(S(=O)(=O)N3CCOCC3)cc21
  -2%, -19%
#42 COc1ccccc1NC(=O)c1cnc2ccccc2n1
  35%[activator], 235%[activator]
#43 CCCn1c(-n2nc(C)cc2C)nc2c1c(=O)n(CCc1ccccc1)c(=O)n2C
  ?, -24%
#44 CCOc1ccc(S(=O)(=O)N(C(C)=O)c2ccc3oc(C)c(C(=O)OC)c3c2)cc1
  7%, ?
#45 CC(Sc1nnc(N2CCCC2)n1-c1ccccc1Cl)c1nnc(-c2cccs2)o1 (stereo not given)
  14%, -4%
#46 Cc1sc2ncn(CC(=O)N3CCN(c4ccccc4F)CC3)c(=O)c2c1S(=O)(=O)N1CCC(C)CC1
  -5%, -8%
#47 Cc1cc(=O)oc2cc(OS(=O)(=O)/C=C/c3ccccc3)ccc12
  -12%[1.06 µM], ?
#48 O=C(NCCc1ccccn1)C1CCN(c2ccc(C(F)(F)F)cn2)CC1
  -31%, -27%
#49 CCn1nc(C(=O)N2CCC(n3c(=O)[nH]c4ccccc43)CC2)c2ccccc2c1=O
  48%[activator], 47%[activator]
#50 COc1cc2cc(C(=O)N(C)C3CCS(=O)(=O)C3)[nH]c2cc1OC (stereo not given)
  1%, 8%
#51 CN(C)c1ccc(CNC(=O)Cc2ccc(NC(=O)N3CCCCc4ccccc43)cc2)cc1
  4%, -7%
#52 O=C(c1ccc(F)cc1F)N1CCC(c2nc(-c3ccc(S(=O)(=O)N4CCCC4)cc3)no2)CC1
  -6%, -9%
#53 O=C(OCC1(COC(=O)c2cccnc2)CCCC(COC(=O)c2cccnc2)(COC(=O)c2cccnc2)C1O)c1cccnc1
  -9%, -18%
#54 CCCCCNC(=O)C(C#N)c1nc2ccccc2nc1OCC (stereo not given)
  -5%, 0%
#55 CCOC(=O)c1c(NC(=O)/C=C/c2ccc(OC)cc2)sc2c1CCC(C)C2 (stereo not given)
  3%, 0%
#56 CCCCn1c(=O)[nH]c(=O)c2c1nc(COC(=O)C1CCCCC1)n2CC
  -16%, -7%
#57 Cc1cc2nn(-c3ccc(F)cc3)nc2cc1NC(=O)c1cccc2c(Cl)cccc12
  -2%, -2%
#58 CC(=O)c1ccc(N2CCN(C(=O)c3cc4c(s3)-c3ccccc3OC4)CC2)cc1
  6%, -1%
#59 S=C1NC2(CCCCCCCCCCC2)NN1c1ccc(Cl)cc1
  54%[activator][1.06 µM], ?
#60 CCN(CC)c1ccc(NC(=O)c2cc(CN3CCCC3)on2)c(C)c1
  -9%, -13%
#61 NNC(=O)c1cc(N)cc([N+](=O)[O-])c1
  3%, 5%
#62 CC1=C(C(=O)Nc2cccnc2)C(c2ccc(C)cc2)n2nc(SCc3ccccc3F)nc2N1 (stereo not given)
  -14%, -11%
#63 Cc1c(-c2cc(C(F)F)c3c(C4CC4)nn(CC(=O)O)c3n2)cnn1C
  -8%, 6%
#64 CCc1cc(C(=O)Nc2sc(Cc3ccccc3)cc2C(N)=O)cs1
  3%, 155%[activator]
#65 Cc1nn(Cc2ccc(Cl)c(Cl)c2)c(C)c1NC(=O)c1noc2c1CCc1ccccc1-2
  ?, ?
#66 Cc1ccc(SCC(=O)c2ccc(S(C)(=O)=O)cc2)cc1
  -7%, -10%
#67 O=c1c(-c2ccccc2)c(C(F)(F)F)oc2cc(O)ccc12
  ?, ?
#68 CCn1cc(/C=C(\NC(=O)c2ccco2)C(=O)NCCO)c2ccccc21
  -5%, -3%
#69 O=C(Nc1ccc2ccccc2n1)c1cccc[n+]1[O-]
  13%, 0%
#70 CCN1CCN(c2c(S(=O)(=O)c3ccccc3)cnc3ccc(Cl)cc23)CC1
  2%, 3%
#71 CCC1(C)Cc2c(sc3nc(SC)nc(N4CCCCC4)c23)CO1 (stereo not given)
  -4%, 8%
#72 CCCc1cc(=O)oc2cc(C)c3c(-c4cccc(OC)c4)coc3c12
  -13%, -14%
#73 Cc1ccccc1NC(=O)CSc1nc2ccc(NC(=O)c3ccco3)cc2s1
  -5%, 22%
#74 Clc1ccc(-n2ncc3c(NC4CCCC4)ncnc32)cc1
  -2%&16%, 31%&88%[activator]
#75 CCOc1ccc(NC(=O)c2ccc(NC(=O)CCS(=O)(=O)c3cccs3)cc2)cc1
  6%, 1%
#76 Cc1ccc(NC(=O)c2ccc3snnc3c2)cc1Cl
  -14%, 66%[activator]
#77 Cc1ccc2oc3c(c(=O)c2c1)C1(C(=O)N(C)c2ccccc21)N(CCCO)C3=O (stereo not given)
  -4%, -17%
#78 Cc1ccc2c(c1)C(=O)OC(C(=O)Nc1ncc(Cc3ccccc3Cl)s1)C2 (stereo not given)
  -8%, 4%
#79 CCC(C)NC(=O)N1CCC2(CC1)Nc1cc(F)ccc1-n1cccc12 (stereo not given)
  -9%, -13%
#80 CC(NC(=O)Cn1nc(C(N)=O)c2ccccc2c1=O)c1ccccc1 (stereo not given)
  -6%, 3%

Part of the list above, with tabs.
item	canonical_smiles	StopGo RLuc	2A firefly
41	COc1ccc(C)cc1NC(=O)CN1C(=O)COc2ccc(S(=O)(=O)N3CCOCC3)cc21	-2%	-19%
6	CC(C)(C)c1ccc(S(=O)(=O)[C@H]2CS(=O)(=O)C[C@@H]2N2CCN(c3ncccn3)CC2)cc1	3%	2%

Laid out differently: results already given.
nr	SMILES	StopGo RLuc	2A firefly
78	Cc1ccc2c(c1)C(=O)OC(C(=O)Nc1ncc(Cc3ccccc3Cl)s1)C2 (stereo not given)	-8%	4%
79	CCC(C)NC(=O)N1CCC2(CC1)Nc1cc(F)ccc1-n1cccc12 (stereo not given)	-9%	-13%

Returning to the listing, repeating the two entries before the break.
Sequence of screens – StopGo RLuc, 2A firefly
#79 CCC(C)NC(=O)N1CCC2(CC1)Nc1cc(F)ccc1-n1cccc12 (stereo not given)
  -9%, -13%
#80 CC(NC(=O)Cn1nc(C(N)=O)c2ccccc2c1=O)c1ccccc1 (stereo not given)
  -6%, 3%
#81 COc1cccc(-c2cc(C(=O)Nc3cccnc3Cl)no2)c1
  4%, 13%
#82 CC(=O)c1ccc(Sc2ccc(F)cc2)c(F)c1
  25%, 141%[activator]
#83 CCOc1ccc(N(Cc2cc3cc(C)ccc3[nH]c2=O)C(=O)C(C)C)cc1
  -7%, -1%
#84 COc1ccc(CCNCc2ccc3c(c2)n(C)c(=O)n3C)cc1
  -14%, -13%
#85 COC(=O)C(Cc1c[nH]c2ccccc12)NC(=O)COc1cccc(C)c1 (stereo not given)
  24%, 19%
#86 COc1ccc(NC(=O)c2cc(OC)nc3ccccc23)cc1
  35%[activator], 56%[activator]
#87 CC(=O)c1cccc(NC(=O)c2cccn2-c2nnc(N3CCCCC3)s2)c1
  82%[activator], 2%
#88 COC(=O)c1ccc(C(=O)NCc2ccc(OC)cc2)cc1
  16%, 0%
#89 Cc1ccc2nc(NS(=O)(=O)c3ccc(Cl)cc3)c(Nc3ccc4c(c3)OCO4)nc2c1
  -2%, 23%
#90 Cc1ccc(Cl)cc1NC(=O)CSc1nc2ccccc2c(=O)n1CCn1cc(Cl)cn1
  -29%, ?
#91 Cc1ccccc1NC(=O)CSc1nnc(C)c(=O)[nH]1
  -14%, -20%
#92 COC(=O)c1cn(C(=O)c2ccc(C)cc2C)c2ccccc12
  1%, 0%
#93 Cc1nc(NCc2ccc3c(c2)OCO3)c2c3c(sc2n1)CCC3
  5%, 17%
#94 CC(C)c1ccc(CNc2nc(-c3ccco3)nn2S(=O)(=O)c2ccc3ccccc3c2)cc1
  3%, 40%[activator]
#95 O=C(NCCc1ccccn1)c1ccc2ccccc2c1
  17%, 29%
#96 CCc1ccc(NC(=O)c2ccc(CNS(=O)(=O)c3ccc4c(c3)C(C)(C)C(=O)N4C)cc2)cc1
  -5%, ?
#97 CCOc1ccc(CN2CCN(c3cccc(C)c3C)CC2)cc1OC
  ?, ?
#98 CC(=O)Nc1ccc(Nc2ncnc3c2cnn3C)cc1
  9%, 122%[activator]
#99 COc1ccccc1NC(=O)C(Cc1ccccc1)NS(=O)(=O)c1ccc2c(c1)CCN2C(C)=O (stereo not given)
  121%[activator], -15%
#100 O=S(=O)(c1cccs1)N1CCOc2ccc(COCc3cccc(F)c3)cc2C1
  32%[activator], 14%
#101 N#Cc1nc(-c2ccc(S(=O)(=O)N3CCCCCC3)cc2)oc1NCCCN1CCOCC1
  120%[activator], -5%
#102 Cn1nnnc1SC1=CS(=O)(=O)c2ccccc21
  ?, ?

Screening data from PubChem.
